fixLJ activator – activators of Burkholderia fixLJ two-component system | B. multivorans fixK-promoter GFP reporter, 18 h; hits give high values | z-score (test concentration not listed) | actives 0.3% (n = 29,000) | AID 1918990;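 active means replicate mean overnight rise in green fluorescent reporter signal, 3 or more SD over negative controls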;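 further: score is relative to vehicle wells of the plate; 300 nL library stock went into each well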
* marks the source's active call; other numbers are inactive results; & = joins results of further samples. This is a subset, so the mix of outcomes need not match the whole.

SMILES	fixLJ activator
COc1ccc(NC(=O)CSc2c3c(nc4ccccc24)CCC3)cc1Cl	0.29
Cc1cc(C)cc(NC(=O)Cn2nnc(C(=O)NCc3ccccc3Cl)c2N)c1	-2.3
CCOC(=O)c1[nH]c2ccccc2c1NC(=O)c1cc(OC)cc(OC)c1	-0.71
Cn1ncc2c(NCCc3cn4ccccc4n3)nc(-c3ccncc3)nc21	1.1
Cc1ccc2cccc(NC(=O)c3ccc(-c4cc(Cl)ccc4Cl)o3)c2n1	-0.25
CCCOc1ccc(C2c3c(-c4ccccc4O)n[nH]c3C(=O)N2Cc2ccncc2)cc1OCC (stereo not drawn)	-2
COc1ccc(-n2c(=O)c3c4c(sc3n(Cc3ccc(F)cc3)c2=O)CN(C(C)=O)CC4)c(OC)c1	1.3
CCCOc1ccc(CNC(=O)c2oc3ccc4c(c3c2C)C(=O)CC(C)(CC)O4)cc1 (stereo not drawn)	-0.7
CCOc1ccc(NC(=O)CC2C(=O)N(c3ccc(C)cc3)C(=O)N2Cc2ccc(OC)cc2)cc1 (stereo not drawn)	-2.1
CN1CCC2(CCN(C(=O)c3ccc(-c4ccc5nc[nH]c5c4)cc3)CC2)C1	0.76
COc1cc2c(cc1OC)C1(CCN(C(=O)CC3CCCCN3C)CC1)OCC2 (stereo not drawn)	-0.72
O=C1CN(CC(=O)N2CC3CCC(C2)N(Cc2ccccc2)C3=O)C(=O)N1 (stereo not drawn)	-1.2
COc1ccc(CNC(=O)C2CCN(S(=O)(=O)c3ccc4c(ccn4C)c3)CC2)cc1	-0.27
CCN(CC)CCCNC(=O)CCCn1ncn2c(cc3occc32)c1=O	-0.63
CSc1ccc(CCNC(=O)CN2C(=O)COc3ccc(S(=O)(=O)N4CCCC4)cc32)cc1	-1.1
O=C(CCn1c(=O)c2ccccc2n(CC(=O)Nc2ccc(F)cc2)c1=O)NCCc1ccccc1	-0.95
Cc1ccc(Cc2ccccc2C(=O)NCC2CCC(=O)N2)cc1 (stereo not drawn)	-0.38
CC[N+](CC)(CC(=O)Nc1c(C)cccc1C)Cc1ccccc1	-0.27
Cc1ccc(-n2nc(CO)c(C(=O)NC(C)c3ccccc3)n2)cc1C (stereo not drawn)	-1.5
O=C(CCOc1ccccc1)NC1COCC1Cc1ccncc1 (stereo not drawn)	-0.54
Fc1ccc(Cc2cn3cc(-c4ccc(Cl)cc4)nc3s2)cc1	-0.12
CCCc1cncnc1N1CCCC2(CCC(=O)N(Cc3ccccn3)C2)C1 (stereo not drawn)	-3.6
Cc1ccc(C(=O)c2cn(Cc3cc(C)ccc3C)c3nc(C)ccc3c2=O)cc1	-0.96
CCC(C)(C)C(=O)O[C@H]1C[C@@H](C)C=C2C=C[C@H](C)[C@H](CC[C@@H]3C[C@@H](O)CC(=O)O3)[C@H]21	-2.1&-1
COc1ccccc1NC(=O)c1ccc2oc(=O)c(S(=O)(=O)c3ccccc3)cc2c1	0.35
The results go on.
SMILES	fixLJ activator
Cc1cccc(C(C)C)c1NC(=O)C1CCCN1S(=O)(=O)c1cccc2nsnc12 (stereo not drawn)	-0.95
Cc1c(CNC2CCCCC2)c(C(=O)O)c(C)n1Cc1ccccc1F	-2.3
Cc1ccc(-c2cc(C(=O)NCc3cnn(C)c3C)c3ccccc3n2)cc1C	-1.8
COc1ccc(Br)c(C(=O)Nc2cc3c(cc2N2CCCCC2)n(C)c(=O)c(=O)n3C)c1	-0.89
COc1ccc(Cl)cc1NC(=O)c1ncn(-c2ccccc2)n1	-0.65
CCc1nn(CC(=O)NCC(C)c2ccccc2)c(=O)c2cc3occc3n12 (stereo not drawn)	0.99
CCN(CCCNC(=O)c1cc2cc3cc(OC)ccc3nc2s1)c1ccccc1	2.5
CN1CCC[C@]2(C(=O)O)CCN(C(=O)Cc3ccccc3Cl)C[C@H]12	-0.1
CCn1c(CNC(=O)C23CC4CC(CC(C4)C2)C3)nnc1SCC(=O)Nc1ccccc1	-1.5
COc1ccc(NC(=O)CN(C)S(=O)(=O)c2ccc3c(c2)c(=O)n(C)c(=O)n3C)cc1	-0.65
O=C(NCc1ccc(Cl)cc1)C1CCN(S(=O)(=O)c2ccc(F)cc2)CC1	-3.3
CCOCCCn1c(=N)c(C(=O)NCc2cccnc2)cc2c(=O)n3cc(C)ccc3nc21	-0.66
Cc1c(C(c2ccc(O)cc2)c2c(O)c3ccccc3oc2=O)c(=O)n(-c2ccccc2)n1C (stereo not drawn)	0.68
Cc1coc2cc3oc(=O)c(CC(=O)N4CCCCC4)c(C)c3cc12	-1.2
Cn1nc(-c2ccccc2F)c2cc(C(=O)NCCc3ccc(Cl)cc3)sc21	1
COC1CN(C(C)C)CC1NC(=O)CSc1nncn1C (stereo not drawn)	0.18
CCOC(=O)c1c(NC(=O)Cc2coc3cc(C)cc(C)c23)sc2c1CCC2	-1.3
O=C(CN(c1cc(C(F)(F)F)ccc1Cl)S(=O)(=O)c1ccccc1)NCCc1ccccc1	1.4
CN(Cc1ccc2nonc2c1)C(=O)NCCCN1CCCC1	-1.2
CCN1C(=O)C(Cc2nc3ccccc3c(=O)n2-c2cccc(C)c2)c2ccccc21 (stereo not drawn)	-3.2
CCc1noc(C)c1C(=O)NCC1CCCN(c2noc(-c3ccccc3)n2)C1 (stereo not drawn)	-0.35
CCOC(=O)c1c(C)oc2ncnc(Nc3ccc(OC)cc3OC)c12	-0.33
CCOc1ccc(-c2cnc(NCc3cccc(Cl)c3)n2C)cc1	-2.7
COc1ccc(C)cc1NS(=O)(=O)c1ccc2c3c(cccc13)C(=O)N2	-0.37
COc1cccc(C2CC(=O)Nc3c2c(=O)nc2c(C)cccn32)c1 (stereo not drawn)	-0.7
(listing goes on)
SMILES	fixLJ activator
CCOC(=O)c1ccc(NS(=O)(=O)c2ccc3c(c2)n(C)c(=O)n3C)cc1	0.2
CCOC(=O)CNC(=O)c1ccc(-c2nn(C)c(=O)c3ccccc23)cc1	-1.3
Cc1cc(CC2CN(C(=O)c3cccc4ncccc34)CC2O)on1 (stereo not drawn)	-0.28
COC(=O)c1cc2occc2n1CC(=O)Nc1ccc(C(C)C)cc1	-1.7
CN1CCN(Cc2cc(=O)n3ccsc3n2)CC12CCOCC2	-0.86
CCS(=O)(=O)Nc1ccc(C(=O)NC2CCCN(c3ncccn3)C2)cc1 (stereo not drawn)	-0.3
COC(=O)c1ccc(Cn2nnc3sc4c(c3c2=O)CCC(C)C4)cc1 (stereo not drawn)	-0.62
COc1cccc(NC(=O)c2oc3ccccc3c2NC(=O)c2ccccc2C)c1	2.1
CC1CCN(S(=O)(=O)c2ccc3c(c2)oc(=O)n3CC(=O)NCc2ccc(F)cc2)CC1	-2.2
Cc1noc(C)c1CCC(=O)Nc1ccc(Oc2nn[nH]n2)cc1	-0.84
COc1ccc(NC(=O)C(NC(=O)C2CCC(C)CC2)C(C)C)cc1 (stereo not drawn)	-0.48
CC(C)N1CCC(NC(=O)C2OCC(=O)NC2c2cccnc2)CC1 (stereo not drawn)	-1.6
Cc1nccn1C(C)CC(=O)NCCc1c(C)n2c3c(cccc13)CCC2 (stereo not drawn)	1.4
CCC(Cc1ccccc1)NC(=O)c1ccc2nc(N3CCC(C)CC3)sc2c1 (stereo not drawn)	0.32
Cc1[nH]nc(CCC(=O)N2CCCC(C(=O)Cc3ccccc3)C2)c1C (stereo not drawn)	0.5
CC(C)C12CN3CC(C(C)C)(CN(C1)C3c1ccccn1)C2=O (stereo not drawn)	-2.1
CCCCN(CC)C(=O)CSc1c2c(nc3ccc(Cl)cc13)CCCC2	-1.7
Cc1ccc(C(=O)CSc2nnc(-c3ccccc3)n2-c2ccccc2)cc1	0
CCN(CC)C(=O)Cn1c(=O)n(-c2ccc(Cl)cc2)c(=O)c2c3c(sc21)CCCCC3	-1.1
CCOc1ccc(NC(=O)CN2C(=O)C(c3ccc(Cl)cc3)=NC2(C)C)cc1	-2.8
CN1CC(=O)N(CC(=O)NCc2csc(N3CCCC3)n2)C1=O	0.37
COc1ccc(NC(=O)CN(c2ccc(C)cc2)S(=O)(=O)c2cccs2)cc1OC	0.25
COc1ccc(C(C(=O)NCc2ccccc2)N(C(=O)Cn2nnc3ccccc32)c2ccc(OC)cc2)cc1 (stereo not drawn)	-2.6
CCOc1ccc(OCC)c(NC(=O)c2cc(-c3cccs3)nc3ccccc23)c1	1.8
CCn1cnnc1CN(C)C(=O)c1csc2nc(-c3ccccc3F)cn12	-0.59
Next section
SMILES	fixLJ activator
CCCCC(Nc1cc(-c2ccc(F)cc2)nc2ccnn12)C(N)=O (stereo not drawn)	0.13
CCN(CCO)CCCC(C)Nc1ccnc2cc(Cl)ccc12 (stereo not drawn)	0.18
CCOC(=O)C1(C)C=C(Nc2ccc(Br)cc2)C(=O)N1c1ccccc1 (stereo not drawn)	-2.3
Cn1nc(C(=O)N2CCC(c3nc(N)n[nH]3)CC2)cc1-c1ccccc1	0.37
CCc1nccn1CCC(=O)N1CCCN(C(=O)CC(C)n2cccn2)CC1 (stereo not drawn)	0.75
CCn1c(=O)c2cc(C(=O)N(CCN(C)C)Cc3ccccc3)sc2c2ccccc21	-1.7
CCOCCCNC(=O)c1ccc2c(=O)n(CCc3ccccc3)c(=O)[nH]c2c1	0.47
O=C(Nc1ccc(F)cc1F)C1CCN(C(=O)c2cnn(-c3ccccc3)c2-n2cccc2)CC1	1.1
CCOCC1(CNC(=O)C2CC(=O)Nc3ccc(F)cc32)CCC1 (stereo not drawn)	-2.5
Cc1nn(C)c(C)c1S(=O)(=O)N(CC(=O)NCCc1ccc(Cl)cc1)c1ccc(C(C)C)cc1	0.28
Cc1nc2ccccn2c1C(=O)NC(C)c1cnn(-c2ccccn2)c1C (stereo not drawn)	-1.9
Nc1c(C(=O)Nc2ccc(Cl)c(C(F)(F)F)c2)sc2nc(-c3ccncc3)ccc12	-0.23
Fc1cnc(NC2COCC2Cc2ccnc3ccccc23)nc1N1CCCC1 (stereo not drawn)	-0.62
O=C(CCCn1cnnn1)NCC(c1ccc(F)cc1)N1CCCC1 (stereo not drawn)	-0.57
Cc1nnc2n1CC(CNC(=O)c1cn(C3CCC(N)CC3)nn1)C2 (stereo not drawn)	0.56
Cc1ccc(Cn2c(SCc3ccc(C(=O)NC4CCCCC4)cc3)nc3ccncc32)cc1	-4.8
CSc1nc(C(=O)N(C)Cc2noc3c2CCCC3)cs1	-0.49
COc1ccc(OC)c(NC(=O)c2cc(=O)c3c(C)cc(C)cc3o2)c1	-3
CCC(=O)N1CCc2[nH]cnc2C12CCN(C(=O)c1cc(C)ccc1C)CC2	1.1
COc1ccc(C(=O)Nc2nnc(SC(C)C)s2)c(OC)n1	-0.05
Cc1ccc(NC(=O)C2CCCN2S(=O)(=O)c2cccc3cccnc23)cc1 (stereo not drawn)	-0.88
CCc1nc(C)c(CNC(=O)CCS(=O)(=O)c2ccccc2)s1	-0.14
CCCc1nnsc1C(=O)N1CCN(c2ncnc3ccccc23)CC1	-2.1
COCc1cc(C)nc2sc(C(=O)Nc3ccccc3O)c(N)c12	-2.7
COc1ccc(CCNCC(=O)Nc2cccc(C)c2C)cc1	0.07
(list continues)
SMILES	fixLJ activator
O=C1N(CCCn2cnnn2)C(=O)C2(CCNCC2)N1CCc1ccccc1	-0.17
O=S(=O)(c1ccc(F)cc1)N(Cc1nc(-c2ccc(Cl)cc2)no1)C1CCCCC1	0.04
Cn1cc(CN2CCCN(C(=O)COCc3ccccc3)CC2)cn1	0.43
Cc1onc(C(=O)NCC2CCCN(c3ccccn3)C2)c1CO (stereo not drawn)	-0.69
CCc1nnc2c(Nc3cccc(F)c3)nc3ccc(C(=O)c4ccccc4)cc3n12	-1.3
CCCCN1C(=O)C(O)(CC(=O)c2ccc(C)cc2C)c2cc(Br)ccc21 (stereo not drawn)	-0.38
COC(=O)c1c(NC(=O)Cc2coc3ccc(C)cc23)sc2c1CCC2	-0.26
COc1cc(OC)c(C2CC(=O)Nc3ccc4ccccc4c32)cc1OC (stereo not drawn)	-1.8
COc1ccc2c(c1)C=C(CNCCCNS(=O)(=O)c1ccc(C)cc1)CO2	-0.81
Cc1ccc(S(=O)(=O)c2cn(CC(=O)Nc3ccc4c(c3)OCO4)c3ccccc3c2=O)cc1	-1.4
O=C(CSc1nc2ccccc2nc1Cc1ccccc1F)Nc1cccc(C(F)(F)F)c1	-0.76
CN(C)c1ccc(-c2nc(-c3cccs3)c(-c3cccs3)[nH]2)cc1	-0.34
CCC(=O)Oc1c(Sc2ccc(C)cc2)c(C)nn1-c1ccccc1	-1.5
COc1ccc(S(=O)(=O)c2c(Nc3cccc(C)c3C)sc(C(=O)c3ccccc3)c2N)cc1	-0.45

Ordered by SMILES length (high to low): some entries from above
SMILES	fixLJ activator
COc1ccc(C(C(=O)NCc2ccccc2)N(C(=O)Cn2nnc3ccccc32)c2ccc(OC)cc2)cc1 (stereo not drawn)	-2.6
Cc1nn(C)c(C)c1S(=O)(=O)N(CC(=O)NCCc1ccc(Cl)cc1)c1ccc(C(C)C)cc1	0.28
Cc1ccc(S(=O)(=O)c2cn(CC(=O)Nc3ccc4c(c3)OCO4)c3ccccc3c2=O)cc1	-1.4
COc1ccc(Br)c(C(=O)Nc2cc3c(cc2N2CCCCC2)n(C)c(=O)c(=O)n3C)c1	-0.89
CSc1ccc(CCNC(=O)CN2C(=O)COc3ccc(S(=O)(=O)N4CCCC4)cc32)cc1	-1.1
Nc1c(C(=O)Nc2ccc(Cl)c(C(F)(F)F)c2)sc2nc(-c3ccncc3)ccc12	-0.23
Cc1ccc(Cn2c(SCc3ccc(C(=O)NC4CCCCC4)cc3)nc3ccncc32)cc1	-4.8
CCn1c(=O)c2cc(C(=O)N(CCN(C)C)Cc3ccccc3)sc2c2ccccc21	-1.7
Cc1ccc2cccc(NC(=O)c3ccc(-c4cc(Cl)ccc4Cl)o3)c2n1	-0.25
COc1cc2c(cc1OC)C1(CCN(C(=O)CC3CCCCN3C)CC1)OCC2 (stereo not drawn)	-0.72
Cc1ccc(C(=O)CSc2nnc(-c3ccccc3)n2-c2ccccc2)cc1	0
O=C1N(CCCn2cnnn2)C(=O)C2(CCNCC2)N1CCc1ccccc1	-0.17
CCCc1nnsc1C(=O)N1CCN(c2ncnc3ccccc23)CC1	-2.1
CCN(CCO)CCCC(C)Nc1ccnc2cc(Cl)ccc12 (stereo not drawn)	0.18

From PubChem
